# NPYLR7 ag: agonists of mosquito NPYLR7 receptor, primary screen, cell-based, Aedes aegypti, calcium fluorescence, mosquito biting behavior; Aedes aegypti neuropeptide Y-like receptor 7 (NPYLR7); HEK293T NPYLR7/Galpha15, GCaMP6s calcium fluorescence; activation, % at 10 µM; hit rate 0.15% among 270,000; AID 1259423, 2018; in the data active = activation above about 40%;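 note: 0% = vehicle and 100% = reference agonist at the receptor; some compounds past the cut are filed as inactive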
# NPYLR7 ag max-min: second read-out of NPYLR7 ag, no call of its own (marks repeat the call); activation, %; measured here: Max-Min RFU normalised activation; some inactives read as strong as hits;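 span of the calcium signal over five minutes; 0% = vehicle and 100% = native peptide agonist; compound fluorescence can raise it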
# An asterisk follows results filed as active; & = joins results of further samples. Not all compounds are listed; the hit share may differ from the screen's.
SMILES,NPYLR7 ag,NPYLR7 ag max-min
Cc1cc(N2C(=O)CSC2c2coc3ccccc3c2=O)no1 (centres undefined),4.2,1.4
CCn1c(CO)c[nH]c1=S,0.8,-0.5
CCc1ccc(N2CC(C)Cn3c2nc2c3c(=O)n(CC(C)C)c(=O)n2C)cc1 (centres undefined),-3.1,-4.6
COCc1c(C(=O)NC2CCC(n3cnnc3)CC2)noc1C (centres undefined),27.6,16.6
COC(=O)CCc1c(C)nn(-c2ccc(C(=O)NN(C)c3ccccc3)cc2)c1C,0.2,-3.4
Cc1nc2n(n1)C(=O)C(C(c1ccccc1)N1CC(C)OC(C)C1)S2 (centres undefined),2.0,-2.0
CCOC(=O)N1CCC(N2CCC(CO)(CCOc3ccccc3)CC2)CC1,-5.4,-5.6
COc1ccc(C(=O)N2C(C(=O)NCc3ccccn3)COC23CCN(C(=O)c2cccs2)CC3)cc1 (centres undefined),-7.4,10.0
O=C1NC(=S)NC1=Cc1ccc2c(c1)OCO2,6.9,8.9
O=C(Nc1cccnc1)C1COc2ccccc2O1 (centres undefined),-6.3,-5.9
C=CCNC(=O)C(NC(=O)c1cccc(C)c1)C1CCN(C(=O)c2cccc(OC)c2)CC1 (centres undefined),-1.9,8.6
S=c1[nH]nc2c3cnn(-c4ccccc4)c3ncn12,31.3,30.2
CCOC(=O)c1ccc(NC(=O)CN2CCc3[nH]c4c(C)c(Cl)ccc4c(=O)c3C2)cc1,-7.3,-10.1
CC(=O)Nc1cc(F)c(F)cc1NC(=O)c1ccc(OCCN(C)C)nc1,1.0,0.8
COc1ccc(C(=O)N(Cc2cccc(OS(=O)(=O)c3cccc(C(F)(F)F)c3)c2)C(C)C)cc1,-10.1,-12.9
COCCN1Cc2cc(OC)ccc2NCCC1=O,23.7,32.0
O=S(=O)(NCc1ccccc1)N(Cc1ccccn1)C1CCCCC1,1.6,-2.0
CCCCSc1nc2c(c(=O)n1-c1ccccc1OC)SCC2,0.3,1.6
O=C(NCc1ccncc1)c1coc(CN(CCc2c[nH]c3ccccc23)Cc2cccc(C(F)(F)F)c2)n1,-11.2,-5.3
CCOc1ccc(S(=O)(=O)N2CCCCC2)cc1NC(=O)c1ccoc1C,1.9,-5.3

# Not a retest: entries from further up.
SMILES,NPYLR7 ag,NPYLR7 ag max-min
Cc1nc2n(n1)C(=O)C(C(c1ccccc1)N1CC(C)OC(C)C1)S2 (centres undefined),2.0,-2.0
CCOC(=O)N1CCC(N2CCC(CO)(CCOc3ccccc3)CC2)CC1,-5.4,-5.6

# Whole records as entered above. Screens in order: NPYLR7 ag, NPYLR7 ag max-min
# O=S(=O)(NCc1ccccc1)N(Cc1ccccn1)C1CCCCC1 across the screens: 1.6, -2.0
# COc1ccc(C(=O)N(Cc2cccc(OS(=O)(=O)c3cccc(C(F)(F)F)c3)c2)C(C)C)cc1 across the screens: -10.1, -12.9
# CCOC(=O)N1CCC(N2CCC(CO)(CCOc3ccccc3)CC2)CC1 across the screens: -5.4, -5.6

# (next part)
SMILES,NPYLR7 ag,NPYLR7 ag max-min
Cc1ccc(-c2csc(=Nc3ccc(C)c(C)c3)n2N2CCOCC2)cc1,-2.7,-7.2
O=C1NCCN2CCN(Cc3c(-c4ccccc4)nc4ncccn34)CC12 (centres undefined),8.4,4.5
Cc1cccc(-c2ccc(NC(=O)C3CCN(C(=O)c4csnn4)CC3)cc2)c1,3.4,-1.4
Cc1c(Br)c([N+](=O)[O-])nn1CC(=O)N(C)C1CCCCC1,0.0,-3.2
Cc1nnc(NC(=O)CSc2nnc(CNC(=O)c3cc(Br)ccc3Cl)n2-c2ccc(F)cc2)s1,-5.4,2.8
CC(=O)c1cc(CN2CCCC(CNS(=O)(=O)c3cccc4cccnc34)C2)cs1 (centres undefined),1.6,-0.9
CCCOC(=O)C1=C(C)NC2=C(C(=O)CCC2)C1c1ccc(C)cc1 (centres undefined),-6.1,-8.3
Cc1cc(C)n(CCn2cc(CCc3ccccc3)nn2)c(=O)n1,10.5,7.7
O=S(=O)(CCN1CCCC(OCCO)C1)Oc1ccccc1 (centres undefined),7.0,4.6
COc1cn(CC(=O)Nc2c(C)cc(C)cc2C)c(CSc2nc(C)cs2)cc1=O,-4.7,-8.6
O=[N+]([O-])c1cnc(Nc2cccc(Cl)c2)c([N+](=O)[O-])c1,-4.5,-5.7
Cc1ccc(CN(CC(O)COCC(C)C)C2CC2)o1 (centres undefined),21.1,23.2
Cc1nc2scc(C)n2c(=O)c1NC(=O)c1ccc(Br)o1,10.0,2.0
Cc1cccc(OCc2nc(CN(CCN(C)C)C(=O)c3cccc(C)c3)cs2)c1,-8.2,-6.1
COc1ccc(NC(=O)N2CCSC2c2cccc(F)c2)cc1 (centres undefined),-1.2,1.1
CC(C)N(CC(=O)N(Cc1cccn1Cc1ccccc1Cl)C1CCCCC1)S(=O)(=O)c1ccc(F)cc1,-9.3,-14.0
CC(C)(CCC(=O)OC(C)(C)C)NCc1cccs1,5.1,3.6
CC(Sc1nccn1-c1ccccc1C(C)C)C(=O)NC(N)=O (centres undefined),2.0,1.1
CCc1nc2n(n1)C(=O)C(C(c1ccc(C(C)C)cc1)N1CCN(C(C)=O)CC1)S2 (centres undefined),-2.1,-10.6
COC(=O)Cc1ccc(NC(=O)c2cnccn2)cc1,6.2,2.5

# 4 entries from above, with two lines to a compound:
# Fields – NPYLR7 ag	NPYLR7 ag max-min
> Cc1nnc(NC(=O)CSc2nnc(CNC(=O)c3cc(Br)ccc3Cl)n2-c2ccc(F)cc2)s1
    -5.4	2.8
> CC(=O)c1cc(CN2CCCC(CNS(=O)(=O)c3cccc4cccnc34)C2)cs1 (centres undefined)
    1.6	-0.9
> CCCOC(=O)C1=C(C)NC2=C(C(=O)CCC2)C1c1ccc(C)cc1 (centres undefined)
    -6.1	-8.3
> Cc1cc(C)n(CCn2cc(CCc3ccccc3)nn2)c(=O)n1
    10.5	7.7

# The list goes on.
SMILES,NPYLR7 ag,NPYLR7 ag max-min
C1CC(Nc2nc(C3CC3)no2)C2CCOC2C1 (centres undefined),-6.0,217.2
O=C(NC1C=CS(=O)(=O)C1)C(=O)N1CCc2ccccc2C1 (centres undefined),5.4,3.9
N#CC1(c2ccccc2)CCN(C(=O)C2CCCCC2C(=O)NCCNc2ccc([N+](=O)[O-])cn2)CC1 (centres undefined),15.4,-8.1
O=C(COc1ccsc1C(=O)N1CCN(c2ccccn2)CC1)N1CCN(c2ccccn2)CC1,-7.8,-15.8
Cc1sc2nc(CCc3ccccc3)nc(N3CCN(C(=O)COc4ccc(Cl)cc4)CC3)c2c1C,-1.9,1.7
CC1CN(c2cc(Cl)nc(SCC(=O)NCCN3CCCC3)n2)CCN1C(=O)c1ccccc1Cl (centres undefined),-11.6,1.3
CCOC(=O)c1cc(-c2cccc(C(F)(F)F)c2)nc2nc(SC)[nH]c(=O)c12,4.6,3.7
CCn1c(CC2CCN(C(=O)OCC(C)(C)C)CC2)nn(C)c1=O,3.8,1.9
CC(C)(C)CC(=O)Nc1ccc2nc(-c3ccoc3)nn2c1,8.1,-2.1
CCOCCn1c(=O)c2c(nc3n(C(C)C)c(C)cn23)n(C)c1=O,6.7,3.1
COC(=O)c1ccccc1NC(=O)N1CCN(C(=O)c2cccc(F)c2)CC1,2.8,2.0
O=c1[nH]ccn(-c2ccc(F)cc2)c1=O,0.0,3.5
CCCc1[nH]n(-c2ccccc2)c(=O)c1C1=C([n+]2cccc(C)c2)C(=O)N(Cc2ccc(F)cc2)C1=O,-3.8,1.4
COc1ccc(CN(CC(C)C)C(=O)COCc2ccccc2)cc1OS(C)(=O)=O,3.6,2.9
Cc1cc(=O)[nH]c(-n2nc(C3CC3)cc2NC(=O)COc2ccccc2F)n1,1.4,0.3
COC(=O)C1=C(C)N(c2ccc(N(C)C)cc2)C(C)=C(C(=O)OC)C1c1ccc(Cl)cc1,6.7,4.9
CN(C)CCN(C(=O)c1cccc2ccccc12)C1CCCC1,-0.3,-0.7
Fc1ccc(-c2nc(Nc3cccc(C(F)(F)F)c3)c3ccccc3n2)cc1,17.3,15.9
Cc1cc(NC(=O)C2CC2)sc1C(=O)N(C)CC1CC1,-23.0,-23.5
Fc1c(F)c(F)c(CSc2cn[nH]n2)c(F)c1F,0.8,-0.8
CCN1CCN(c2nc(Nc3ccc(SC(F)F)cc3)c3cnn(-c4ccccc4)c3n2)CC1,1.2,-0.8
COCCCn1c(SCc2ccc(F)c(Cl)c2)nnc1-c1cc(-c2ccccc2)nc2ccccc12,-2.8,6.4
CN(C)C(=O)c1nn(-c2ccccc2Cl)c2c1CCCC2,9.9,4.3
COc1cccc(C(=O)Nc2nn(C)c3c2C(c2ccco2)CC(=O)N3)c1OC (centres undefined),-17.6,-20.5
FC(F)(F)Oc1ccc(Nc2ncnc3[nH]ncc23)cc1,2.1,4.5
CCOCCOC(=O)C1=C(C)N(C)C(=O)NC1c1ccc(Cl)c(Cl)c1 (centres undefined),-6.0,-10.2
CCNC(=O)NC(=O)C(c1ccccc1)N1CCN(c2ccccc2)CC1 (centres undefined),8.3,4.4
CCCn1c(=O)c2ccccc2n(CC(=O)NCCOC)c1=O,-6.5,2.0
CCc1nc2c(OCc3ccc(F)cc3)cccn2c1N(C)C(=O)c1ccc(OC)cc1,1.9,-1.9
CC(Oc1ccccc1F)C(=O)N1CCN(c2ccc3nnc(-c4ccco4)n3n2)CC1 (centres undefined),4.6,10.6
O=C(/C=C/c1cc(F)cc(F)c1)NCC1CCC2(CCN(Cc3cccnc3)CC2)O1 (centres undefined),6.2,2.1
O=C1CSC(c2cccc(F)c2)N1c1ccc(O)cc1 (centres undefined),-6.8,-10.0
C#CCn1c(C(C)O)nc2ccccc21 (centres undefined),8.9,15.1
Cc1ccc(Cc2nsc(N3CCCN(C(=O)C(Cl)Cl)CC3)n2)cc1,28.6,30.6
O=C(Cc1cn2ccsc2n1)N1CC(c2ccncc2)C1,2.8,16.1
CC(C)c1c(NS(=O)(=O)c2ccc(C3CCCCC3)cc2)c(=O)n(-c2ccccc2)n1C,0.4,3.9
COc1ccc2nc(NC(=O)CSc3nc4ccc([N+](=O)[O-])cc4[nH]3)sc2c1,-6.4,-7.5
CC(NC(=O)COC(=O)c1ccccc1O)c1cccs1 (centres undefined),7.9,6.0
Cc1ccc2oc(C(=O)NCCCOc3ccccc3F)cc(=O)c2c1,-0.7,1.5
CCCCc1c(O)c2c([nH]c1=O)CC(c1ccccc1)CC2=O (centres undefined),7.3,11.8

# Sorted by count of non-hydrogen atoms (high to low): part of the list above
SMILES,NPYLR7 ag,NPYLR7 ag max-min
COCCCn1c(SCc2ccc(F)c(Cl)c2)nnc1-c1cc(-c2ccccc2)nc2ccccc12,-2.8,6.4
CC(C)c1c(NS(=O)(=O)c2ccc(C3CCCCC3)cc2)c(=O)n(-c2ccccc2)n1C,0.4,3.9
O=C(Cc1cn2ccsc2n1)N1CC(c2ccncc2)C1,2.8,16.1

# Later entries.
SMILES,NPYLR7 ag,NPYLR7 ag max-min
CC(C)(C)NS(=O)(=O)c1ccc(Sc2nc3ccccc3o2)c([N+](=O)[O-])c1,11.1,13.3
CC(C)c1cc(C2CCN(C(=O)C[C@@H](C)c3ccccc3)CC2)[nH]n1,-3.3,-6.8
C=CCn1c(SCC(=O)NCC(C)c2ccccc2)nnc1-c1cccnc1 (centres undefined),3.1,-1.1
CCOCCn1c(=O)c2c(nc3n(-c4cc(OC)ccc4OC)c(C)cn23)n(C)c1=O,3.5,3.9
CCOC(=O)c1cnc2c(C(=O)OC)c[nH]n2c1=O,1.8,-1.6
COc1ccc(COCC(O)Cn2c(C)nc3ccccc3c2=O)cc1 (centres undefined),4.8,2.6
CCOc1ccccc1CN1CCCn2cccc2C1c1cc(C)ccc1C (centres undefined),0.0,4.3
CC1=C(C(=O)OC2CCCCC2)C(c2ccc(C)o2)C2=C(CC(c3ccccc3)CC2=O)N1 (centres undefined),-3.7,-4.7
CCOP(=O)(Cc1ccc(NC(=O)c2ccc(SC)cc2-c2cccc(F)c2)cc1)OCC,-3.8,-9.8
CC1CC(C)CN(c2ncc3c(n2)CC(c2ccc(F)cc2)CC3=O)C1 (centres undefined),-3.0,2.0
O=C(Cc1ccccc1)Nc1ccnn1C1CCN(C(=O)c2cscn2)CC1,3.0&3.4,-0.2&1.0
Cc1ccc(-c2nsc(C(=O)N3CCN(C)CC3)c2N)cc1,-8.5,-9.6

# Bioassay records deposited in PubChem BioAssay by Fisher Drug Discovery Resource Center.
